Compound activity (PubChem BioAssay)
Rango complex inh: Rango-importin beta binding inhibition; Q14974; Rango CFP/YFP FRET sensor + importin beta, 45 min; Potency, µM (titrated, usually from 92.2 µM), without a hit: top-dose inhibition of complex formation; actives 0.031% (n = 340,000); AID 540263; active = rising FRET ratio curve, often small or poorly fitted; inconclusive = mostly compound fluorescence or quenching in the first reads; inactive = flat curves in all reads;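 note: potency is the fitted concentration of half-maximal effect; 0% = DMSO wells and 100% = buffer wells lacking importin beta; nearly all actives have a fitted effect of over 15% in size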
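FRET biosensor Rango (snurportin 1 IBB between N-terminal EYFP and C-terminal Cerulean), 50 nM in PBS/1 mM DTT/0.02% Tween-20/0.1% BSA, preincubated 5 min RT with compound; 0.125 microM importin beta added, 45 min RT, CFP/YFP FRET ratio read.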
miR-21 reporter: miR-21 reporter, rising signal; HeLa miR-21 FLuc reporter, luciferase, 48 h; Potency, µM (series often up to 38.3 µM), for inactives: top-dose reporter change, positive = more light; 340,000 tested, under 10 active; active = well fitted rising curve with a large enough effect; inconclusive = small, poorly fitted or top-dose-only effect; inactive = no such curve, though single readings can be large or run the other way;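 note: % of control where 0% means no effect; miR-21 action dims this reporter so a rising signal means less miR-21 action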
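Luminescence from a firefly luciferase reporter carrying a miR-21 binding site downstream, stably expressed under a CMV promoter in HeLa cells that make miR-21 endogenously, reports miRNA modulation after 48 h compound exposure up to approximately 40uM final.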
GLA inh pH 4.5: alpha-galactosidase A (human) inhibition, pH 4.5; purified enzyme, 4-MU-alpha-Gal fluorescence, pH 4.5; activity change, negative = inhibition, % at 105 µM; 230,000 tested, under 10 active; AID 1467; inconclusive = small, poorly fitted or top-dose-only inhibition, or a rising curve; inactive = flat fitted curve, though single readings scatter; no compound was filed as active;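 note: 0% = full activity with enzyme and -100% = basal without enzyme; dose as in the result columns while the protocol names 77 µM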
Target sequence (P06280 whole entry, looked up): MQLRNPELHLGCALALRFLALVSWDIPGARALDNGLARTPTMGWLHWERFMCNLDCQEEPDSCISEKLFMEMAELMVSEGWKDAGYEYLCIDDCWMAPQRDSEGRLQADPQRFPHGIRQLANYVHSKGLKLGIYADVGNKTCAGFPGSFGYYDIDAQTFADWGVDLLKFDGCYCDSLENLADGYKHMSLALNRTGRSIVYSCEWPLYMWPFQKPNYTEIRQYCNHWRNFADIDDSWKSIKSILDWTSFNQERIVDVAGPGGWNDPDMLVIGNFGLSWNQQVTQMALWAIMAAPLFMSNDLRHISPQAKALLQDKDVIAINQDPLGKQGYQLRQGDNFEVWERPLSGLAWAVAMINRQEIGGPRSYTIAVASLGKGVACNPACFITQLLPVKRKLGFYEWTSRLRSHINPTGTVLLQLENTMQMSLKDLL
Rango release inh: inhibitors of RanGTP-induced Rango-importin beta complex dissociation; Potency, µM (titrated, usually from 46.1 µM), for inactives: at the top dose activity change, negative = inhibition; O95149+P62826; actives 0.071% (n = 340,000); Biochemical FRET Rango-importin beta, RanGTP-induced dissociation; AID 540253; active means falling FRET ratio curve, often poorly fitted, with flat reads before Ran was added; inconclusive means other falling curves, or compound fluorescence or quenching; inactive means flat or rising ratio curve;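 note: potency is the fitted concentration of half-maximal effect; % of control where 0% means no effect; nearly all actives have a fitted effect of over 45% in size; -100% = wells without RanGTP and RCC1; the record marks most hits as doubtful in a second field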
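Compounds preincubate 5 min with complex of recombinant Rango and importin beta in PBS with 1 mM DTT. Ran (0.6 uM) loaded with 2 mM GTP plus 0.2 uM RCC1 starts dissociation; FRET is recorded 45 min later.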
* marks the source's active call; other numbers are inactive results; [ ] = dose if it differs, or a comment. This is a subset; rates above refer to the full screens.

How did COc1ccc(NC(=O)CSc2ccccn2)c([N+](=O)[O-])c1 do in these assays?
Rango complex inh: 3.0%; miR-21 reporter: -26%; GLA inh pH 4.5: -2; Rango release inh: 1%

What do the screens show for `CCCn1c(SCC(=O)Nc2cc(Cl)ccc2OC)n[nH]c1=O`?
Rango complex inh: 0.8%; miR-21 reporter: 6%; GLA inh pH 4.5: 0; Rango release inh: 5%

How did COc1cc2c(cc1OC)C(c1cccc([N+](=O)[O-])c1)NC(=O)C2 (stereo unspecified) do in these assays?
Rango complex inh: 1.9%; miR-21 reporter: 2%; GLA inh pH 4.5: 2; Rango release inh: 5%

What do the screens show for `COc1ccccc1OCC(=O)Nc1cc(S(=O)(=O)N2CCCCC2)ccc1N1CCCCC1`?
Rango complex inh: 0.7%; miR-21 reporter: -3%; GLA inh pH 4.5: -22; Rango release inh: 3%

How did COc1ccc(O)c(/C=N/NC(=O)c2ccc(N3CCCC3=O)cc2)c1 do in these assays?
Rango complex inh: 8.3%; miR-21 reporter: 24%; Rango release inh: -10%

What do the screens show for `CCN(CC)S(=O)(=O)c1ccc2c(c1)c(=O)c(C(=O)NCc1cccs1)cn2C`?
Rango complex inh: -2.8%; miR-21 reporter: -10%; GLA inh pH 4.5: -2; Rango release inh: -5%

Results for O=C(Cc1c(Cl)cccc1Cl)Nc1cccc(S(=O)(=O)N2CCOCC2)c1 ?
Rango complex inh: inconclusive; miR-21 reporter: 2%; GLA inh pH 4.5: -1; Rango release inh: 5%

How did COC(=O)c1cc2ccsc2n1Cc1nc(-c2cccc(Cl)c2)oc1C do in these assays?
Rango complex inh: -2.1%; miR-21 reporter: -4%; GLA inh pH 4.5: -2; Rango release inh: -5%

What do the screens show for `CCNc1nc2c(c(=O)[nH]c(=O)n2C)n1CCCc1ccccc1`?
Rango complex inh: -6.3%; miR-21 reporter: -6%; Rango release inh: -17%

Results for S=C(c1ccccc1)N1CCCc2ccccc21 ?
Rango complex inh: 1.3%; miR-21 reporter: -6%; GLA inh pH 4.5: 10; Rango release inh: -8%

What do the screens show for `O=C(NCc1cccc2[nH]ccc12)C1CCC(=O)N(CCc2ccccc2)C1` (stereo unspecified)?
Rango complex inh: -3.4%; miR-21 reporter: 0%; Rango release inh: 0%

How did CCOC(=O)C1(C)NC(c2cc(OC)c(OC)c(OC)c2)C2C(=O)N(CC)C(=O)C21 (stereo unspecified) do in these assays?
Rango complex inh: -1.2%; miR-21 reporter: -4%; GLA inh pH 4.5: 3; Rango release inh: 0%

Results for COCCNCCCOc1ccc(Br)cc1Cl ?
Rango complex inh: -1.4%; miR-21 reporter: -1%; GLA inh pH 4.5: 0; Rango release inh: -9%

Results for COc1cccc(CNC(=O)CNC(=S)N(Cc2ccccc2)Cc2ccccc2F)c1 ?
Rango complex inh: -5.3%; miR-21 reporter: 22%; GLA inh pH 4.5: inconclusive; Rango release inh: 24%

What do the screens show for `Cc1[nH]c2ccc(C(=O)OC(C)C(=O)NC3(C#N)CCCCC3)cc2c1C` (stereo unspecified)?
Rango complex inh: -0.1%; Rango release inh: -4%

How did C=CCc1ccc(OCCCOc2ccc(C)c(C)c2)c(OC)c1 do in these assays?
Rango complex inh: 0.1%; miR-21 reporter: 0%; GLA inh pH 4.5: 3; Rango release inh: -5%

Results for S=C(c1ccc(OCc2ccccc2)cc1)N1CCCC1 ?
Rango complex inh: 3.1%; miR-21 reporter: -14%; Rango release inh: -1%

How did Cc1cc(C(=O)CCl)c(C)n1-c1ccon1 do in these assays?
Rango complex inh: 0.2%; miR-21 reporter: 11%; GLA inh pH 4.5: 5; Rango release inh: 17%

Results for COc1cc(CC(=O)OCc2cccc([N+](=O)[O-])c2)cc(OC)c1OC ?
Rango complex inh: 0.4%; miR-21 reporter: 2%; Rango release inh: -10%

Results for CCCCC(=O)Nc1cccc(NC(=O)c2ccc(Br)o2)c1 ?
Rango complex inh: 0.8%; miR-21 reporter: -9%; GLA inh pH 4.5: -3; Rango release inh: 2%

What do the screens show for `COC(=O)c1cn(-c2ccccc2)nc1-c1ccc(OC)cc1`?
Rango complex inh: 5.6%; miR-21 reporter: -17%; GLA inh pH 4.5: 1; Rango release inh: -5%

What do the screens show for `CC1(c2ccccc2Cl)NC(=O)N(CC(=O)N2CCN(S(=O)(=O)c3ccccc3)CC2)C1=O` (stereo unspecified)?
Rango complex inh: -1.7%; Rango release inh: 1%

Results for Cc1cccc(-n2c(C)cc(C=C3C(=O)c4ccccc4C3=O)c2C)c1 ?
Rango complex inh: inconclusive; miR-21 reporter: -5%; GLA inh pH 4.5: -3; Rango release inh: inconclusive

How did Cc1[nH]c(C(=O)N/N=C/c2ccc(N(C)C)cc2)c(C)c1C(=O)N/N=C/c1ccc(N(C)C)cc1 do in these assays?
Rango complex inh: inconclusive; miR-21 reporter: -7%; GLA inh pH 4.5: -4; Rango release inh: inconclusive

Results for CCn1ncc(Br)c1C(=O)Nc1cc(C)on1 ?
Rango complex inh: 4.3%; miR-21 reporter: 1%; Rango release inh: 1%

What do the screens show for `CCN[C@H]1CN(CCCOC)S(=O)(=O)c2sc(S(N)(=O)=O)cc21`?
Rango complex inh: -3.7%; Rango release inh: 30%

How did CCOC(=O)C1=NN(N=O)C2(CC(=O)N(c3cc(C)cc(C)c3)C2=O)C1 (stereo unspecified) do in these assays?
Rango complex inh: 1.8%; miR-21 reporter: -5%; GLA inh pH 4.5: 6; Rango release inh: -16%

Results for COc1cccc(C(=O)NNS(=O)(=O)c2ccc(C)cc2)c1 ?
Rango complex inh: -0.8%; miR-21 reporter: -5%; Rango release inh: 6%

What do the screens show for `COC(=O)c1ccc(NC(=O)CCN2C(=O)C3CC=CCC3C2=O)cc1` (stereo unspecified)?
Rango complex inh: 0.6%; Rango release inh: -6%

What do the screens show for `Cc1ccc(N(CC(=O)NC2CCCCC2)C(=O)CNC(=O)c2cccs2)cc1`?
Rango complex inh: 3.5%; miR-21 reporter: -4%; Rango release inh: -8%

Results for Cc1ccc(S(=O)(=O)N2CCN(CC(=O)NC(=O)NCc3ccco3)CC2)cc1C ?
Rango complex inh: 2.3%; miR-21 reporter: 0%; GLA inh pH 4.5: 11; Rango release inh: 6%

How did O=C(CSc1nnc(CNC(=O)c2ccco2)o1)Nc1ccccc1 do in these assays?
Rango complex inh: 0.6%; miR-21 reporter: 3%; GLA inh pH 4.5: 4; Rango release inh: 13%

How did Cc1cc(C)c2sc(N(CCN(C)C)C(=O)CCS(=O)(=O)c3ccccc3)nc2c1 do in these assays?
Rango complex inh: 0.1%; miR-21 reporter: 0%; Rango release inh: 0%

Results for Cc1oc2cc3oc(=O)c(CC(=O)N[C@@H](C)C(=O)NC(Cc4ccc(Cl)cc4)C(=O)O)c(C)c3cc2c1C (stereo partly specified) ?
Rango complex inh: -2.2%; miR-21 reporter: 1%; Rango release inh: -8%

Results for CC(=O)c1c(NCCc2ccccc2)nc(=S)n(-c2ccccc2)c1C ?
Rango complex inh: -0.2%; miR-21 reporter: -10%; GLA inh pH 4.5: 3; Rango release inh: 2%

What do the screens show for `c1csc(-c2nnsc2-c2nc3ccccc3[nH]2)c1`?
Rango complex inh: inconclusive; miR-21 reporter: -29%; GLA inh pH 4.5: -10; Rango release inh: -2%

Results for Nc1ccccc1SCCS(=O)(=O)c1ccc(Cl)cc1 ?
Rango complex inh: -1.3%; miR-21 reporter: -4%; Rango release inh: 13%

What do the screens show for `CCOC(=O)C1=C(C)NC(C)=C(C(=O)OCC)C1C(=O)OCC(=O)N(C)Cc1ccccc1`?
Rango complex inh: inconclusive; Rango release inh: inconclusive

What do the screens show for `O=C(c1ccc2oc(Cc3ccc(Cl)cc3)nc2c1)N1CC[C@H](O)C1`?
Rango complex inh: 0.3%; miR-21 reporter: -9%; Rango release inh: -13%

What do the screens show for `NC(=O)CC(NC(=O)Cc1cccc2ccccc12)c1ccc(NCCN2CCCCC2)c([N+](=O)[O-])c1` (stereo unspecified)?
Rango complex inh: 1.1%; miR-21 reporter: 0%; Rango release inh: 2%

The closing 5 records of the section before lead into the next.
What do the screens show for `c1csc(-c2nnsc2-c2nc3ccccc3[nH]2)c1`?
Rango complex inh: inconclusive; miR-21 reporter: -29%; GLA inh pH 4.5: -10; Rango release inh: -2%

Results for Nc1ccccc1SCCS(=O)(=O)c1ccc(Cl)cc1 ?
Rango complex inh: -1.3%; miR-21 reporter: -4%; Rango release inh: 13%

What do the screens show for `CCOC(=O)C1=C(C)NC(C)=C(C(=O)OCC)C1C(=O)OCC(=O)N(C)Cc1ccccc1`?
Rango complex inh: inconclusive; Rango release inh: inconclusive

What do the screens show for `O=C(c1ccc2oc(Cc3ccc(Cl)cc3)nc2c1)N1CC[C@H](O)C1`?
Rango complex inh: 0.3%; miR-21 reporter: -9%; Rango release inh: -13%

What do the screens show for `NC(=O)CC(NC(=O)Cc1cccc2ccccc12)c1ccc(NCCN2CCCCC2)c([N+](=O)[O-])c1` (stereo unspecified)?
Rango complex inh: 1.1%; miR-21 reporter: 0%; Rango release inh: 2%

How did C=CCNc1sc(C(=O)c2cccs2)c(N)c1C#N do in these assays?
Rango complex inh: inconclusive; miR-21 reporter: -8%; GLA inh pH 4.5: -6; Rango release inh: inconclusive

How did Cc1cc(C)nc(N/C(=N\S(=O)(=O)Cc2ccccc2)Nc2ccccc2Br)n1 do in these assays?
Rango complex inh: 0.4%; miR-21 reporter: 26%; GLA inh pH 4.5: -3; Rango release inh: 12%

Results for CC(C)Oc1ccc(CNC(=O)c2ccc3c(c2)N(C)CCS3)cc1 ?
Rango complex inh: 1.7%; miR-21 reporter: -30%; Rango release inh: 4%

What do the screens show for `CNc1nc(C)nc(-n2nc(C)cc2C)n1`?
Rango complex inh: -0.8%; miR-21 reporter: -17%; GLA inh pH 4.5: -9; Rango release inh: 9%

What do the screens show for `CC(C)C[C@H]1COCCS(=O)(=O)N1Cc1ccc(Cl)c(Cl)c1`?
Rango complex inh: 4.2%; Rango release inh: 0%

What do the screens show for `Cc1nnnn1/C(=C\c1ccccc1)C(=O)OCC(=O)N(C)C1CCS(=O)(=O)C1` (stereo unspecified)?
Rango complex inh: 7.4%; miR-21 reporter: 1%; GLA inh pH 4.5: -3[21.1 µM]; Rango release inh: -3%

Results for COCCn1nnnc1C(c1cc2ccc(OC)cc2[nH]c1=O)N1CCc2ccccc2C1 (stereo unspecified) ?
Rango complex inh: inconclusive; miR-21 reporter: -7%; GLA inh pH 4.5: 2; Rango release inh: -16%

What do the screens show for `O=C(O)CCC(NC(=O)c1cncc(O)c1)C(=O)O` (stereo unspecified)?
Rango complex inh: 3.1%; miR-21 reporter: -1%; GLA inh pH 4.5: 1; Rango release inh: 15%

What do the screens show for `O=C(/C=C/c1ccco1)N(Cc1ccc(F)cc1)C1CCS(=O)(=O)C1` (stereo unspecified)?
Rango complex inh: 1.2%; miR-21 reporter: 2%; GLA inh pH 4.5: -3; Rango release inh: 21%

Results for CCN(CC)C(=O)Cn1cnc2sc(C(=O)N3CCN(c4ccc(OC)cc4)CC3)c(C)c2c1=O ?
Rango complex inh: -3.3%; miR-21 reporter: -2%; GLA inh pH 4.5: -6; Rango release inh: 21%

How did O=C(COc1cc(Cl)ccc1Cl)Nc1nnc(C2CC2)s1 do in these assays?
Rango complex inh: -1.5%; miR-21 reporter: -2%; Rango release inh: 10%

How did CCOC(=O)N1CCC(NCCNC(=O)c2ccc(F)cc2)CC1 do in these assays?
Rango complex inh: -0.2%; Rango release inh: -4%

What do the screens show for `O=C(NCCC(=O)N1CCCCC1)c1ccc(Br)cc1`?
Rango complex inh: 0.4%; miR-21 reporter: -48%; Rango release inh: -7%

What do the screens show for `C[C@H](NC(=O)c1nc[nH]c1C(=O)NCc1ccccc1)C(=O)OC(C)(C)C`?
Rango complex inh: -3.4%; miR-21 reporter: 2%; GLA inh pH 4.5: -1; Rango release inh: -1%

How did CC1(C2CC2)NC(=O)N(CC(=O)NCC(=O)Nc2ccc(F)c(F)c2F)C1=O (stereo unspecified) do in these assays?
Rango complex inh: 0.8%; Rango release inh: 2%
